Rce1 inhib = blocks yeast Ras-converting enzyme; AID 2563; Q03530; calls only; yeast membranes, quenched prenylated peptide cleavage fluorescence; 0.27% of 290,000 active;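 active means fall in fluorescence gain of 50% or more versus controls, with final raw signal at or below 3038400; inconclusive means same 50% fall but final raw signal above 3038400; inactive means fall in fluorescence gain under 50%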;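 further: plate controls were neutral control wells for no effect and wells lacking membranes for full effect; tested at 10 µM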
Target sequence (Q03530 whole entry, looked up): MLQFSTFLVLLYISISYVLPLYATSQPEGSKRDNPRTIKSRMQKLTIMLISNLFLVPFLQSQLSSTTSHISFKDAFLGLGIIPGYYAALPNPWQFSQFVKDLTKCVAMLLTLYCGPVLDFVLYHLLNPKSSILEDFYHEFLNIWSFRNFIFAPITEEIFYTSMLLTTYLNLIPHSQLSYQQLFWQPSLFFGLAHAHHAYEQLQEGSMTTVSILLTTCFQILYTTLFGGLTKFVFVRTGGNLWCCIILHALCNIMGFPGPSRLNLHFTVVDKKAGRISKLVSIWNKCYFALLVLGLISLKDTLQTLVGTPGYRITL
eIF4H FP inh = inhibitors of RNA binding by human eIF4H. inhibition, % at 35 µM. AID 2012. 0.94% of 290,000 active. Q15056. eIF4H fluorescence polarization binding assay;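 active means 50% or more with normal probe brightness, or confirmed in later tests; inconclusive means above 50% with abnormal brightness, or retests that disagree; inactive means below 50% or failed in later tests; about a fifth of its hits are not listed in these tables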;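 further: calls also rest on retests at 20 µM and on dose response follow-up; 0% = protein and probe with vehicle and 100% = probe without protein; strong numbers were not always called active; many hits fall short of the cut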
HIV Env fusion = blocks HIV Env-driven cell-cell fusion | HeLa-JRFL Env/CEM21 cell fusion, luciferase | 1.1% of 360,000 active | inhibition, % at 12.3 µM;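 active means mean replicate inhibition score of at least 50 and every replicate individually at or above 50; inconclusive means only one of the two criteria met; inactive means mean below 50 and not all replicates reaching 50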;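 further: 0% = plate neutral controls and 100% = maraviroc near 300 nM; one replicate is shown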
Yeast UUG start = alters start codon recognition fidelity in yeast. 0.13% of 350,000 active. activity score, % at 18.7 µM. AID 602363. S. cerevisiae UUG-firefly luciferase reporter, luminescence/redox ratio;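 active means replicate mean at a twofold rise or more, about +100% in these data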;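 further: firefly luciferase made from a UUG start codon reports start codon fidelity; reporter light over untreated wells divided by growth signal over untreated wells; some hits fall short of that in this replicate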
PABP FP inh = blocks human PABP binding to poly(A) RNA | P11940 | fluorescence polarization | inhibition, % at 35 µM | 1% of 290,000 active;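 active means 50% or more with normal probe brightness, or confirmed in later tests; inconclusive means above 50% with abnormal brightness, or retests that disagree; inactive means below 50% or failed in later tests; about a fifth of its hits are not listed in these tables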;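 further: calls also rest on retests at 20 µM and on dose response follow-up; controls were probe without protein and protein plus probe with vehicle; some compounds called inactive have numbers as strong as hits; many hits fall short of the cut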
MT1-MMP act inh = blocks activation of human MT1-MMP; 0.061% of 360,000 active; GFP/RFP ratio change, % at 20 µM; AID 651647; P50281; HT1080 RFP-PRO-GFP cells, GFP/RFP ratio fluorescence, overnight; percent of plate control window, DMSO zero;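 active means GFP/RFP ratio change of at least 30% with cell ATP level not reduced by more than half and red fluorescence within 50% of control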; further: strong numbers were not always called active
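Material: RFP-PRO-GFP reporter HT1080 cells. Dosing: single-point 20 µM compound, 1% DMSO. Controls: DMSO and RFP-L50D-GFP cell wells. Timing: cells overnight before dosing, compound overnight, 37 °C, 5% CO2. Measure: GFP/RFP fluorescence ratio.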
CSC inhib = cancer stem cell inhibition. cancer stem cell-like cells viability, luminescence. inhibition, % at 7.5 µM. 1.1% of 300,000 active. AID 2717;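 active means mean at 75% or more and at least half the replicates too; inconclusive means mean and replicates disagree; tested in HMLE shEcad cells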;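 further: 0% = median of negative and 100% = median of positive control wells; the first replicate is given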
eIF4H FP inh retest = further read-out of eIF4H FP inh, marked with its call; inhibition, %; compound at 20 µM; confirmation average;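 mean of two retest wells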
PABP FP inh retest = second read-out of PABP FP inh, no call of its own (marks repeat the call); inhibition, %; compound at 20 µM; confirmation repeats;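 mean of two retest wells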
MT1-MMP act inh RFP = second read-out of MT1-MMP act inh, no call of its own (marks repeat the call); RFP signal change, %; measured here: RFP expression control read;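 0 = vehicle wells; hits needed this value within 50% of zero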
Numbers without * were called inactive; i = inactive; ? = inconclusive; · = not tested or not shown.

The first four compounds as a preview:
SMILES	Rce1 inhib	eIF4H FP inh	HIV Env fusion	Yeast UUG start	PABP FP inh	MT1-MMP act inh	MT1-MMP act inh RFP	CSC inhib	others
COc1ccc(C)cc1NC(=O)NC(C)c1ccncc1 (stereo not drawn)	i	5	0	·	0	1	2	-12
CCOC(=O)C(C)n1cnc2c(cnn2-c2ccc(Cl)cc2)c1=O (stereo not drawn)	i	1	·	·	-9	1	-10	-4
Cn1c(C(=O)N2CCN(C(=O)c3ccco3)CC2)cc2c(=O)n3ccccc3nc21	i	14	11	7	7	6	3	-1
CCOC(=O)c1sc(NS(=O)(=O)c2ccccc2)nc1C	i	2	·	-8	2	5	1	1

The listing, previewed entries included:
SMILES	Rce1 inhib	eIF4H FP inh	HIV Env fusion	Yeast UUG start	PABP FP inh	MT1-MMP act inh	MT1-MMP act inh RFP	CSC inhib	others
COc1ccc(C)cc1NC(=O)NC(C)c1ccncc1 (stereo not drawn)	i	5	0	·	0	1	2	-12
CCOC(=O)C(C)n1cnc2c(cnn2-c2ccc(Cl)cc2)c1=O (stereo not drawn)	i	1	·	·	-9	1	-10	-4
Cn1c(C(=O)N2CCN(C(=O)c3ccco3)CC2)cc2c(=O)n3ccccc3nc21	i	14	11	7	7	6	3	-1
CCOC(=O)c1sc(NS(=O)(=O)c2ccccc2)nc1C	i	2	·	-8	2	5	1	1
CCCC(=O)N(c1ccc(OC)cc1)C1C=CS(=O)(=O)C1 (stereo not drawn)	i	-8	·	-6	5	-1	5	-8
COc1ccc(S(=O)(=O)N2CCCOC2CNC(=O)C(=O)NCCc2ccco2)cc1OC (stereo not drawn)	i	-1	2	4	12	-1	0	-4
COc1ccc2c3c([nH]c2c1)C1(NCC3)C(=O)Nc2ccccc21 (stereo not drawn)	i	-5	-9	-19	-5	1	1	-11
COc1ccc(C(=O)Nc2ncc(C)s2)cc1S(=O)(=O)N1CCOCC1	·	·	·	-20	·	4	1	1
Cc1ccc(C(=O)N2CCN(Cc3ccc4c(c3)OCO4)CC2)cc1S(=O)(=O)N1CCOCC1	i	-2	-4	·	4	3	-6	3
COc1cccc(CNc2ncc(Br)cc2Br)c1O	i	1	·	·	-3	-5	-2	-7
COc1cc(/C=N/O)cc(Br)c1OCC(=O)NCc1ccccc1	i	-10	·	·	0	2	2	-8
O=C(c1ccc2nc3ccccc3c(=O)n2c1)N1CCN(Cc2ccc3c(c2)OCO3)CC1	i	-5	28	11	-3	-5	-4	-14
C=C(C(=O)c1ccccc1)C(c1ccccc1)C(C)C(=O)c1ccccc1 (stereo not drawn)	i	0	-16	·	31	-23	-16	111*
CCCCC1(c2ccc(F)cc2)NC(=O)N(CC(=O)Nc2ccc(N3CCOCC3)cc2)C1=O (stereo not drawn)	·	·	3	34	·	2	-4	-6
CN(Cc1ccccc1)C(=O)COC(=O)c1ccc(S(=O)(=O)N(C)C)cc1	i	-9	3	·	0	-1	1	6
CC1=Nc2cc(Cl)ccc2Oc2ccccc21	i	-4	-23	·	-4	2	5	8
CN(Cc1ccccc1)C(=O)COC(=O)c1ccccc1NS(=O)(=O)c1cccc(N)c1	i	3	·	·	-5	1	5	1
Cc1cc(C(=O)OCC(=O)Nc2ccc(F)cc2[N+](=O)[O-])c2ccccc2n1	i	4	-22	1	0	0	0	-13
Cc1ccc(NCCCn2cnc(C(=O)Nc3ccc(C)c(C)c3)n2)cc1C	·	·	0	-7	·	6	0	·
CSCCC(NC(=O)c1ccccc1C)C(=O)O (stereo not drawn)	i	-7	0	9	-7	2	0	-9
CN(C[C@H](Cc1ccccc1)N(C[C@H](CC1CCCCC1)N(CCc1ccccc1)N=O)N=O)N=O	i	-4	67*	1	-10	0	-5	2
COc1ccc([C@H]2C[C@@H](n3cc(COC(=O)c4ccccc4)nn3)[C@H](O)CN2Cc2cccs2)cc1	·	·	5	-7	·	4	1	·
Cc1cc(=O)oc2cc(OCC(=O)OCC(=O)N3CCC(C)CC3)ccc12	i	-8	-3	·	3	2	5	1
COc1ccccc1/C=C1\SC(=O)N(CCC(=O)NNC(=O)c2ccccc2Cl)C1=O	i	-8	-45	1	2	2	2	-5
O=C(N/N=C/c1c[nH]c2ccccc12)c1cc(Br)ccc1O	i	-11	3	-2	7	0	2	1
The list continues:
SMILES	Rce1 inhib	eIF4H FP inh	HIV Env fusion	Yeast UUG start	PABP FP inh	MT1-MMP act inh	MT1-MMP act inh RFP	CSC inhib	others
Cc1nn(C)c(C)c1C(C)NC(=O)c1cc(COc2cncc(Cl)c2)on1 (stereo not drawn)	i	-8	5	-16	1	0	-6	-2
CCCCNc1c(-c2ccc(OC)c(SC3CCCCC3)c2)nc2cnccn12	i	·	·	-2	·	-27	-15	2
CC(C)(C)OC(=O)N1Cc2ccccc2C[C@H]1C(=O)NCC(=O)Nc1ccc2c(c1)OCCO2	i	0	8	-55	-5	1	3	-8
CCOC(=O)CCC(=O)Nc1ccc(S(=O)(=O)Nc2cc(OC)nc(OC)n2)cc1	i	-4	1	-20	6	-3	-2	-6
CCCCn1c(NC(=O)c2ccc(Br)o2)c(S(=O)(=O)c2ccccc2)c2nc3ccccc3nc21	i	56*	37	-14	67*	-20	-8	40
O=[N+]([O-])c1ccc(S(=O)(=O)NCCS(=O)(=O)N2CCN(c3ccccc3)CC2)cc1	i	3	16	-6	7	-3	-10	-6
CCOc1ccc(C(O)(c2ccccc2)C(CN2CCCC2)c2ccccc2)cc1 (stereo not drawn)	i	1	-4	-8	2	-1	-3	-8
COc1cccc(C(C)=NNc2ccc([N+](=O)[O-])cc2[N+](=O)[O-])c1OC	·	·	7	-16	·	12	1	·
Cc1cccc(NC(=O)c2cccc(NC(=O)Cc3cccs3)c2)c1	i	-4	-26	·	-4	0	-1	11
Cc1cccc(NC2=NC(C)(C)N=C(N)N2)c1	i	2	0	-19	2	-11	-7	·
COc1cc(C(=O)COC(=O)C2CCCCC2)cc(OC)c1OC	·	·	24	-11	·	-1	3	-15
Cc1nn(Cc2ccccc2)c(C)c1CNC(=O)c1ccc(F)c(S(=O)(=O)N2CCOCC2)c1	·	·	·	5	·	2	-7	-12
Cc1occc1-c1nnc(SCC(=O)N2CCN(c3ccccc3F)CC2)n1C	i	5	3	·	-4	·	·	-19
CC(C)c1ccc(OCC(=O)Nc2ccc(OC(F)(F)F)cc2)cc1	i	-5	14	-4	-8	4	3	-3
CCCC(=O)NC(c1ccccc1Cl)c1ccc2cccnc2c1O (stereo not drawn)	·	14	-66	-1	-11	3	-7	109*
CCc1nnc(NS(=O)(=O)c2ccc(NC(=S)NC(=O)c3cccs3)cc2)s1	i	-4	25	·	9	-1	4	-11
CNS(=O)(=O)c1cc(O)c2c(S(=O)(=O)NC)cccc2c1	i	-4	·	-11	-4	5	5	-1
COc1ccc(NC(=O)CNC(=O)C2CCCCC2)cc1	i	3	4	-20	3	1	4	-3
CC1(C)CC(n2c(NCCO)nc3c(c2=O)C2(CCCC2)Cc2ccccc2-3)CCO1 (stereo not drawn)	i	-10	-26	5	1	-1	-9	·
Nc1ccc(C(=O)Nc2ccc(NC(=O)c3ccco3)c(O)c2)cc1	i	2	-8	-19	9	1	4	-1
O=C(CN1CCN(C(=O)CNC(=O)c2ccc(-c3ccccc3)cc2)CC1)Nc1ccccc1Cl	·	·	14	-5	·	-7	-27	·
Cc1cc(C(=O)COc2cc(F)ccc2[N+](=O)[O-])c(C)n1C1CC1	i	0	-1	·	8	0	7	-14
C/C(=N\NC(=O)C1CCCC1)c1ccc(NC(=O)C(F)(F)F)cc1	·	·	?	-28	·	11	-2	·
COc1ccccc1NC(=O)c1[nH]c(C)c(C(C)=O)c1C	i	0	·	1	-4	6	4	-18
Cc1cccc(-n2cc[nH]c2=S)c1	i	-6	11	-10	1	-1	1	-9
(list continues)
SMILES	Rce1 inhib	eIF4H FP inh	HIV Env fusion	Yeast UUG start	PABP FP inh	MT1-MMP act inh	MT1-MMP act inh RFP	CSC inhib	others
Oc1c(N=NC(=S)Nc2ccccc2F)c2ccccc2n1Cc1ccccc1	i	11	21	-8	-8	12	-7	·
COc1ccccc1/C=C/C(=O)NC(=S)NCC1CCCO1 (stereo not drawn)	i	-4	-6	-26	-2	2	-1	-16
C=Cn1cc[n+](CC(=O)c2cc(C(C)(C)C)c(O)c(C(C)(C)C)c2)c1	i	1	-137	-4	5	-3	-14	7
CC(=O)c1c(C)[nH]c(C(=O)NCc2ccccc2)c1C	i	3	·	-14	-9	3	1	-22
O=C1C(Cl)=C(N2CCCCCC2)C(=O)N1c1ccccc1	i	4	105*	-23	-2	-1	1	·
CC1=C(C(=O)OC2CCCC2)C(c2coc3ccccc3c2=O)C2=C(CC(C)(C)CC2=O)N1 (stereo not drawn)	i	7	21	2	13	·	·	?
Cc1ccc(C)c(OCc2cc(C(=O)N3CC[C@@H]4CCCC[C@H]4C3)no2)c1	i	-2	-11	-8	2	-1	2	60
Cc1n[nH]c(C)c1CCCCOc1ccc([N+](=O)[O-])cc1	i	-25	6	0	6	8	-7	4
O=C(CSc1ccsc1[N+](=O)[O-])Nc1cc(F)ccc1F	i	94	-8	·	5	-12	-9	·	eIF4H FP inh retest=25;PABP FP inh retest=7
Cc1nc(-c2ccc(Br)cc2)ccc1C(=O)O	i	-4	-140	·	-1	-11	1	-2
Cc1[nH]c2ccccc2c1C(c1ccncc1)N1CCN(c2ccccc2F)CC1 (stereo not drawn)	i	-4	-3	·	-6	0	-5	·
CN(C(=O)COC(=O)c1ccc(Cl)c(S(=O)(=O)N2CCCCC2)c1)C1(C#N)CCCCC1	·	·	·	3	·	1	-6	-15
COC(=O)c1cc(Br)ccc1NC(=O)Nc1ccc(C)cc1	i	·	-25	-10	·	-2	-4	-16
CCOC(=O)C1=C(Nc2ccccc2)CC(C)(O)C(C(=O)OCC)C1c1ccc(Br)cc1 (stereo not drawn)	i	5	0	·	-4	1	2	38
CN1CCN(c2nc3c(c(=O)n(C)c(=O)n3C)n2Cc2ccc(Cl)cc2)CC1	i	1	-8	-10	0	-7	0	-7
Cc1ccc(S(=O)(=O)N2[C@@H](c3ccc(F)cc3)C(C(=O)O)=CC[C@H]2c2ccc(C(C)C)cc2)cc1	·	·	9	1	·	1	4	-5
CC1(C)Nc2ccccc2N(Cc2ccc([N+](=O)[O-])cc2)C1=O	i	-1	20	-2	-3	-2	-2	13
Cc1csc(NC(=O)c2ccc[nH]c2=O)n1	i	1	-112	-23	2	1	-3	1
COc1ccc(S(=O)(=O)Nc2ccc3c(c2)n(C)c(=O)n3C)cc1OC	i	2	-24	-17	8	9	4	·
CCOc1ccc(NC(=O)c2cccc(S(=O)(=O)Nc3c(C)n(C)n(-c4ccccc4)c3=O)c2)cc1	·	·	13	1	·	2	3	·
Cc1cc2c(cc1C)-c1c(ssc1=Nc1ccc(S(N)(=O)=O)cc1)C(C)(C)N2	i	-1	11	·	-8	-5	-7	-2
Cc1cc(C)n(CC(=O)Nc2ccc(N3CCOCC3)c(Cl)c2)c(=O)c1C#N	i	-11	3	-12	10	3	2	-4
Cc1cc(C)n(C(=O)CCC(=O)Nc2ccc(C)c(C)c2)n1	i	-4	-118	-4	-2	3	6	-3
CCCc1nnc(SCC(=O)Nc2nccs2)o1	i	0	6	-12	4	2	2	-12

An excerpt from further up:
SMILES	Rce1 inhib	eIF4H FP inh	HIV Env fusion	Yeast UUG start	PABP FP inh	MT1-MMP act inh	MT1-MMP act inh RFP	CSC inhib	others
CN(Cc1ccccc1)C(=O)COC(=O)c1ccc(S(=O)(=O)N(C)C)cc1	i	-9	3	·	0	-1	1	6
CC1=Nc2cc(Cl)ccc2Oc2ccccc21	i	-4	-23	·	-4	2	5	8

Assay outcomes (PubChem BioAssay)
